LT uptake inh = inhibitors of anthrax lethal toxin internalization | Cells, anthrax lethal toxin internalization, FRET ratio (460/530) | Potency, µM (top dose mostly 40 µM), without a hit: top-dose activity change, negative = inhibition, most hits filed as inhibitors | 70,000 tested, 0.67% active | AID 912; active = well fitted falling ratio curve with the 530 nm signal flat; inconclusive = other ratio curves, or a change in one channel alone; inactive = flat curves in the ratio and both channels; the % refers to the ratio; note: % is set by controls: 0 for no effect and ±100 for the full control effect; nearly all actives have a fitted effect of over 50% in size; tested in ME-180 cells; beta-lactamase reporter
Prx2 Sm inh = Schistosoma mansoni Prx2 inhibition; S. mansoni Prx2 activity coupled to TGR/GSH (TGR is thioredoxin glutathione reductase), NADPH fluorescence loss, qHTS; some inactives read as strong as hits; Potency, µM; 65,000 tested, 0.07% active; active means full or partial inhibition curve with a strong effect at the top dose; inconclusive means weaker partial or single-point curve; inactive means no accepted curve; note: series up to 57 µM; many of its hits are not listed in these tables
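Enzyme mix: 100 uM NADPH, 25 nM TGR, 700 uM GSH, 50 nM Prx2 in 100 mM phosphate pH 7.4, 10 mM EDTA, 0.01% Tween-20. 15 min RT with compound; NADPH/GSH added, H2O2 starts reaction; NADPH fluorescence read 8 min.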
The depositor's hits bear a star; ? = inconclusive; . = not tested or not shown; & = joins results of further samples; [ ] = another dose, or the depositor's remark. Potency is the fitted concentration of half-maximal effect. Some of the compounds tested; rates above refer to the full screens.

SMILES | LT uptake inh | Prx2 Sm inh
Cc1csc(SCC(=O)Nc2cccc3nsnc23)n1 | -11% | >57
CN(C(=O)c1c(Cl)nc2sccn12)C1CCCCC1 | -12% | >57
CCN(CC)CCCN1C(=O)C(O)=C(C(=O)c2cc3ccccc3o2)C1c1ccccn1 (centres undefined) | 5% | >57
Cc1ccccc1-c1nc2cc(N)ccc2o1 | -10% | >57
COc1ccc(CCNC(=O)c2cc(-c3cccs3)on2)cc1OC | 9% | >57
O=C(NCSc1ccncn1)c1ccccc1 | -7% | >57
Cc1cccc(NC(=O)NCCN2C(=O)C3C4C=CC(C4)C3C2=O)c1 (centres undefined) | -8% | >57
CC(NC(=O)Cn1cnnn1)C12CC3CC(CC(C3)C1)C2 (centres undefined) | 5% | >57
O=C(c1ccco1)N1CCN(C(=O)C2Cc3ccccc3CN2S(=O)(=O)c2ccc(F)cc2)CC1 (centres undefined) | 10% | >57
O=C(CN1C(=O)c2cccc3cccc1c23)N1CCc2ccccc2C1 | -5% | >57
O=C(COC(=O)c1cccnc1Nc1ccccc1F)NCc1ccc2c(c1)OCO2 | ? | >57
Cc1cc(C)nc(-n2nc(C)cc2NC(=O)COC(=O)CCC(=O)c2cccs2)n1 | 11% | >57
Cc1cccc(OCCOCCSc2ncccn2)c1 | -3% | .
N#CCCN1CCN(C(CNS(=O)(=O)c2ccc(Cl)cc2)c2ccccc2)CC1 (centres undefined) | -20% | .
O=C(COc1ccc(F)cc1Br)NCc1ccccn1 | -10% | >57
CCCCCCCC/C=C\CCCCCCCC(=O)NCCO | ? | >57&>57
CC(C)=CC(=O)Nc1ccc2c(c1)OCO2 | 4% | >57
C=CCNC(=O)CN1CCC(O)(c2ccccc2)CC1 | 0% | >57
O=[N+]([O-])c1cccc2c(Br)[nH]nc12 | ? | >57&>57
O=c1c2c3nc4ccccc4nc3n(/N=C/c3cccs3)c2ncn1-c1ccccc1 | 2% | >57
CC12CC1(C)C(=O)N(c1cc(Cl)cc(Cl)c1)C2=O (centres undefined) | -6% | .
CCC(=O)N1CCc2cc(S(=O)(=O)NC(C(=O)N3CCc4ccccc4C3)C(C)C)ccc21 (centres undefined) | 2% | >57
COc1ccc(Cn2nnnc2C(c2cccs2)N2CCN(c3ccccc3)CC2)cc1 (centres undefined) | ? | >57
CC(=O)C1=C(C)Nc2ncnn2C1c1ccccc1Cl (centres undefined) | 9% | >57
COc1ccc2cc(S(=O)(=O)N3CCOCC3)ccc2c1 | -11% | .
NC1CCCCC1N=Cc1c(O)n(Cc2ccc(F)cc2)c(=O)[nH]c1=O (centres undefined) | ? | >57
CCC(c1nnnn1Cc1ccco1)N(Cc1cc2cc(C)cc(C)c2[nH]c1=O)CC1CCCO1 (centres undefined) | -10% | >57
CCc1ccc(OCC(=O)Nc2ccc(-c3nc4ccccc4o3)c(O)c2)cc1 | -3% | >57
CCN(CC)S(=O)(=O)c1cccc(C(=O)OCc2cc(=O)n3nc(C)sc3n2)c1 | -3% | >57
COC(=O)[C@@]1(Cc2ccc(F)cc2)[C@H]2c3cc(C(=O)N4CCCC4)n(Cc4ccc(C)o4)c3C[C@H]2CN1C(=O)c1ccccc1 | -4% | >57
CCCSc1nc(C)cc(=O)[nH]1 | -15% | >57
Cc1cc(OCC(=O)N(C)C)c2c(-c3ccccc3)cc(=O)oc2c1 | -3% | >57
COc1cc2c(C(=O)NCc3ccccn3)cn(CC(C)C)c(=O)c2cc1OC | 7% | >57
CN(C)CCN1C(=O)CC[C@]2(C)C1=CC[C@@H]1[C@@H]2CC[C@]2(C)[C@H]1CC[C@]2(C)O | 5%[8 µM] | >57
CC(=O)Nc1ccc(S(=O)(=O)CCC#N)cc1 | -3% | >57
CCCc1cc(COC)c(C#N)c(=O)[nH]1 | 8%[8 µM] | >57
Cc1ccc(Cn2ccc(NC(=O)c3cc(-c4ccco4)on3)n2)cc1 | -23% | >57
O=C(NCCCN1CCOCC1)c1cc(-c2cccs2)on1 | 9% | >57
C#CCOC(=O)NC(/C=C/CCCC)c1ccccc1 (centres undefined) | -17% | >57
COC(=O)N1CCC[C@@]2(CCN(C(=O)Nc3ccccc3)C2)C1 | -3% | >57
Cc1ccc(O)c(NC(=O)c2cccc(NC(=O)c3ccco3)c2)c1 | ? | >57
N#Cc1cccc(NC(=O)N2CC[C@@]3(CCCN(S(=O)(=O)c4ccccc4)C3)C2)c1 | -21% | >57
CCCCOC(=O)Cn1c(=N)n(CCC)c2ccccc21 | 0% | >57
Cc1cccc(NS(=O)(=O)c2cccs2)n1 | 8% | >57
O=C(COC(=O)c1n[nH]c2ccccc12)NC(=O)NCc1ccco1 | -7% | >57
Oc1ccccc1 | 0% | .
C#CC(C)(CC)NC(=O)c1cc(OC)c(OC)c(OC)c1 (centres undefined) | -6% | >57
Cc1cccc(N2CCN(S(=O)(=O)c3ccc4c(c3)c(=O)n(C)c(=O)n4C)CC2C)c1 (centres undefined) | -5% | >57
CCn1c(C)csc1=NC(=O)c1ccccc1O | 6% | >57
Nc1nc(CSc2nc3ccccc3[nH]2)nc(N2CCOCC2)n1 | ? | >57
O=C(CCNS(=O)(=O)c1ccc2c(c1)CCC(=O)N2)Nc1ccc2c(c1)OCCO2 | ? | >57
CCSc1nc2c(cnn2-c2ccc(C)cc2)c(=O)[nH]1 | -8% | >57
COc1ccc(OC)c(C(=O)c2ccc(C(=O)O)cc2)c1 | -4% | .
COC(=O)c1sc(NC(=O)C2CCCCC2C(=O)O)c(C(=O)OC)c1C (centres undefined) | -5% | >57
CCSc1nnc(NC(=O)CSc2nccn2-c2cccc(C)c2C)s1 | -2% | >57
CC(=O)c1cccc(N2C(=NC(=O)C(C)C)SC3CS(=O)(=O)CC32)c1 (centres undefined) | ? | >57
CCOC(=O)N1CCN(C(=O)c2cccc(OC)c2OC)CC1 | 10% | >57
CC1(C)Oc2ccc(C(=O)N3CCCCC3)cc2N(CC(=O)NCc2ccccc2)C1=O | 2% | >57
Cc1ccc(-n2nnnc2SCC(N)=O)c(C)c1 | -2% | >57
COc1ccc(NC(=O)CN2C(=O)CC(C)(C)S(=O)(=O)c3ccccc32)cc1 | 2% | >57

Rewritten with two lines to a compound: entries from further up
Values run as follows: LT uptake inh | Prx2 Sm inh
> N#Cc1cccc(NC(=O)N2CC[C@@]3(CCCN(S(=O)(=O)c4ccccc4)C3)C2)c1
→ -21% | >57
> CCCCOC(=O)Cn1c(=N)n(CCC)c2ccccc21
→ 0% | >57
> Cc1cccc(NS(=O)(=O)c2cccs2)n1
→ 8% | >57
> O=C(COC(=O)c1n[nH]c2ccccc12)NC(=O)NCc1ccco1
→ -7% | >57
> Oc1ccccc1
→ 0% | .
> C#CC(C)(CC)NC(=O)c1cc(OC)c(OC)c(OC)c1 (centres undefined)
→ -6% | >57

Next section
SMILES | LT uptake inh | Prx2 Sm inh
C=CCn1c(C(C)NC(=O)CC)nc2ccccc21 (centres undefined) | 9% | >57
N#Cc1c(SCC(=O)Nc2nccs2)nc2c(c1-c1ccco1)CCCC2 | 0% | >57
CCCCN1C(=O)c2ccc(C(=O)Nc3cccnc3)cc2C1=O | -10% | >57
NNS(=O)(=O)c1cc(C(=O)O)cc(C(=O)O)c1 | 2%[8 µM] | >57
CCOC(=O)c1c(C)[nH]c(C(=O)CN2CC(C)OC(C)C2)c1C (centres undefined) | -4% | >57
CCn1c(SCC(=O)Nc2cccc(C)c2)nc2c(c1=O)SC(C)C2 (centres undefined) | -16% | >57
Cc1nc(N)sc1CCN | -10% | >57
O=C(CCN1C(=O)C2C3C=CC(C3)C2C1=O)Nc1c(F)cc(F)cc1Br (centres undefined) | 5% | >57
CC(OC(=O)c1cccs1)C(=O)NCc1ccc2c(c1)OCO2 (centres undefined) | 9% | >57
COCC(=O)Nc1nnc(Cc2ccc(OC)c(OC)c2)s1 | -10% | >57
Nc1cc2c(nc3c4ccccc4c(N)cc3[n+]2-c2cccc3ccccc23)c2ccccc12 (tested in a mixture with another compound) | ? | >57
COc1cccc(-c2cc(NCc3ccccc3OC)ncn2)c1 | -21% | >57
CS(=O)(=O)Nc1cccc(-c2cncnc2Nc2ccc(F)cc2)c1 | 4% | >57
CCOc1ccc(NC(C)c2cc(Cl)ccc2O)cc1 (centres undefined) | . | >57
O=C(c1ccc(=O)[nH]c1)N(Cc1ccco1)C1(C(=O)NC2CCCC2)CCCCC1 | 1% | >57
O=C(Cn1cnc2c(cnn2-c2ccccc2)c1=O)NC1CCCC1 | 2% | >57
COc1ccc(Cn2nnnc2CN(Cc2cc3cccc(C)c3[nH]c2=O)C2CCCC2)cc1 | 6% | >57
CNC(=O)n1ccc(C(=O)N2CCCCC2)n1 | -5% | >57
CCN(C(=O)c1cn(C)c(=O)c2cc(OC)c(OC)cc12)c1ccccc1C | -15% | >57
O=C(CSCc1ccc(Cl)cc1)c1ccco1 | -20% | >57
Cc1onc(-c2ccccc2Cl)c1C(=O)Nc1cc(=O)n(C)c(=O)n1C | -12% | >57
Cc1noc(C)c1C(=O)NC(C)C1CCCO1 (centres undefined) | 6% | >57
O=C(CCCCn1c(=O)[nH]c2ccsc2c1=O)NCC1CCCO1 (centres undefined) | -8% | >57
O=c1[nH]cnc2c1ncn2[C@H]1CC[C@@H](CO)O1 | -5% | .
COc1ccc(C2CC(c3ccco3)n3ncnc3N2)cc1 (centres undefined) | -10% | >57
Cc1cc(NC(=O)c2cnccn2)no1 | -3% | >57
CC1(C)CC(=O)c2c(noc2-c2ccccc2)C1 | -16% | >57
COc1ccccc1CN1CCCC2(CCN(C(=O)c3ccco3)CC2)C1 | ? | >57
O=C(O)C(F)(F)C(F)(F)C(F)(F)C(F)(F)C(=O)O | -8%[8 µM] | >57
COCCCNC(=O)c1cc2c(s1)CS(=O)(=O)C2 | -17% | >57
COc1ccc(C)cc1NC(=O)c1cc2c(C)nc3ccccc3c2o1 | -1% | >57
Cc1oc(-c2cccs2)nc1CS(=O)CC(=O)NCCCN1CC(C)CC(C)C1 (centres undefined) | -5% | >57
CCCCn1c(=O)n(CC(=O)Nc2ccc(C)c(Cl)c2)c(=O)c2c1ncn2Cc1ccco1 | -19% | >57
NC(N)=NCCN=C(N)N | ? | >57
c1cncc(-c2nc(-c3ccco3)cs2)c1 | 3% | >57
CCCC(C(=O)NCc1ccco1)N(C(=O)CNS(=O)(=O)c1ccc(Cl)cc1)C1CCCC1 (centres undefined) | -8% | >57

Complete entries, quoted from the list.
NC(N)=NCCN=C(N)N is entered as LT uptake inh = ?; Prx2 Sm inh = >57
CC1(C)CC(=O)c2c(noc2-c2ccccc2)C1 is entered as LT uptake inh = -16%; Prx2 Sm inh = >57
CCCC(C(=O)NCc1ccco1)N(C(=O)CNS(=O)(=O)c1ccc(Cl)cc1)C1CCCC1 (centres undefined) is entered as LT uptake inh = -8%; Prx2 Sm inh = >57

(listing goes on)
SMILES | LT uptake inh | Prx2 Sm inh
O=C(Cn1nnc(-c2ccccc2)n1)c1ccccc1 | 5% | >57
CCOC(=O)c1[nH]nc2c1C(=O)N(Cc1ccccc1)C2=O | -2% | >57
CSc1nc2ccc(NS(=O)(=O)c3ccc4c(c3)OCCO4)cc2s1 | -16% | >57
Cc1ncsc1CCSc1n[nH]c(=O)n1-c1ccccc1 | 5% | >57
CCCC(=O)C1C(=O)NC(=O)NC1=O | . | >57
CC(OC(=O)c1cccs1)C(=O)NCc1cccs1 (centres undefined) | ? | >57
COc1ccccc1CNC(=O)CSc1nc2nc(C)cc(C)n2n1 | 2% | >57
CCn1nnnc1SCCSc1nnnn1CC | -4% | >57
O=C1CSC2(CCN(CCCN3c4ccccc4Sc4ccc(Cl)cc43)CC2)N1 | 7%[8 µM] | >57
CC[C@@H]1OC(=O)[C@H](C)[C@H](O[C@@H]2C[C@](C)(OC)[C@H](O)[C@H](C)O2)[C@H](C)[C@H](O[C@@H]2O[C@@H](C)C[C@@H](N(C)C)[C@@H]2O)[C@](C)(O)C[C@H](C)[C@@H]2N[C@H](COCCOC)O[C@H]([C@@H]2C)[C@]1(C)O | -3%[3.58 µM] | >57
COc1cccc(CNC2CN3CCC2CC3)c1OC (centres undefined) | -5% | >57
COc1cc(NC(=O)c2cc3sccc3n2C)cc(OC)c1 | ? | >57

Random excerpt: four records from the list
SMILES | LT uptake inh | Prx2 Sm inh
COc1cccc(CNC2CN3CCC2CC3)c1OC (centres undefined) | -5% | >57
CC(OC(=O)c1cccs1)C(=O)NCc1cccs1 (centres undefined) | ? | >57
Cc1ncsc1CCSc1n[nH]c(=O)n1-c1ccccc1 | 5% | >57
CSc1nc2ccc(NS(=O)(=O)c3ccc4c(c3)OCCO4)cc2s1 | -16% | >57

(listing goes on)
SMILES | LT uptake inh | Prx2 Sm inh
CCC(C)[C@H](N)c1nnc(SCc2cccc(F)c2)o1 (some centres undefined) | ? | >57
CCn1c(NC(=O)c2cccs2)nc2ccccc21 | -9% | >57
CN1CCN(c2nc3c(c(=O)[nH]c(=O)n3C)n2CCCSc2ncccn2)CC1 | -3% | >57
Cc1cc(Nc2ccccc2N2CCOCC2)n2ncnc2n1 | . | >57
Cc1ccc2c(CC(=O)OC(C)C(=O)NCc3ccc4c(c3)OCO4)coc2c1 (centres undefined) | -12% | >57
Cc1cc(C(C)(C)C)oc1C(=O)N1CCN(C(=O)c2oc(C(C)(C)C)cc2C)CC1 | 1% | >57

Compound activity from PubChem.
